HIV TAR-Tat – HIV-1 TAR-Tat binding disruption; HIV-1 TAR RNA, Tat peptide displacement FRET; active compounds read high; z-score (concentration not given with the values); 0.6% of 100,000 active; AID 1259389;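 also: score is relative to mean and SD of negative controls; some compounds called inactive have numbers as strong as hits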
CDC25B CDK2 inh – human CDC25B-CDK2/CyclinA binding inhibition; P30305+P24941; HTRF CDC25B-CDK2/CyclinA binding, anti-His/anti-Flag; active compounds read high; z-score (no concentration beside the values); 0.72% of 94,000 active;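 also: score is relative to mean and SD of negative controls; strong numbers were not always called active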
Active calls of the source: *; . = not tested or not shown.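 The calls were made as follows: active = z-score from 3 up in half or more of its runs; inactive = the rest.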

SMILES	CDC25B CDK2 inh	HIV TAR-Tat
O=S(=O)(Nc1ccccc1F)c1ccc2c(c1)[C@H]1C=CC[C@H]1[C@@H](c1ccc(F)cc1)N2	-1	.
CN(C)CCCNC(=O)Cn1cnc2c1c(=O)n(C)c(=O)n2C	0.33	0.26
C=CCN1C(=O)C2(c3ccccc31)c1c(oc3cc(C)c(C)cc3c1=O)C(=O)N2CCCO (stereo not drawn)	-1.7	0.33
CCOC(=O)c1c(C)n(C)c2ccc(OC(C)=O)cc12	-2.9	1
O=c1cnc2cc(S(=O)(=O)N3CCCCC3)ccc2[nH]1	-1.4	2
CC(C)OCCCNC(=O)CCCn1c(=O)c2cccn2c2cccnc21	.	0.42
COc1ccc(Nc2nc(Nc3ccc(OC)cc3OC)nc(N3CCN(C)CC3)n2)c(OC)c1	0.68	.
CC(=O)Nc1ccc2[nH]c(C)c(C(Nc3cccc(C)n3)c3ccccn3)c2c1 (stereo not drawn)	-1.2	1.2
COCCN[C@H]1CS(=O)(=O)C[C@@H]1S(=O)(=O)c1ccc(C)cc1	-1.5	-0.47
Cc1ccc(S(=O)(=O)CCCC(=O)Nc2sc3c(c2C(N)=O)CCC3)cc1	.	0.64
O=c1[nH]c(-c2cccc(O)c2)nc2c1Cc1ccccc1O2	-2	-1.4
COCCNC(=O)c1cn2c3c(ccc(Cl)c3c1=O)OC(C)C2 (stereo not drawn)	.	1.4
OCCCc1nc2ccccc2n1CCCCOc1ccc(Cl)cc1	0.09	1
Cc1nc(NCCc2ccccc2)cc(-c2ccccc2)n1	1.4	0.59
CCCCn1c2ccccc2n2cc(-c3ccc4c(c3)OCO4)nc12	-0.52	-0.55
CC1CCCCC1NC(=O)C1CCCN(S(=O)(=O)c2ccc3c(c2)oc(=O)n3C)C1 (stereo not drawn)	-0.95	0.51
C=CCOc1cccc(C2c3c(oc4ccccc4c3=O)C(=O)N2c2nnc(C)s2)c1 (stereo not drawn)	-0.01	1.3
O=S(=O)(c1cccc2nsnc12)N1CCN(Cc2nc3cc(Cl)ccc3o2)CC1	.	1.6
CCOC(=O)c1noc(C)c1-c1csc(CS(=O)(=O)Cc2cccc(C(F)(F)F)c2)n1	-0.96	.
Cn1ncc2c(Nc3ccc(Oc4ccccc4)cc3)ncnc21	.	2
O=C1c2ccccc2C(=O)N1CCCOc1ccc(Cl)cc1	-1.2	.
CCC(=O)N1CCc2cc(S(=O)(=O)NC(CC(C)C)C(=O)N3CCC(C)CC3)ccc21 (stereo not drawn)	-0.78	0.8
O=C(NCc1cc(F)cc2c1OCOC2)c1ccno1	-0.33	.
CCOc1cc(-c2cc(C(=O)O)c3c(-c4ccc(Br)cc4)[nH]nc3n2)ccc1O	.	2.3
CCOCCCNC(=O)Cn1nc(CC)n2c(cc3occc32)c1=O	-1.6	-0.03
Cc1cccc(CSC2=NS(=O)(=O)c3ccc(C)cc3N2)c1	.	2
CCNC(=O)c1cc2n(n1)CC(C)(C(=O)NC1CCCCC1)N(C)C2=O (stereo not drawn)	.	0.32
Cc1ccc(NC(=O)Nc2nnc(CC(=O)Nc3cccc(C)c3)s2)cc1	0.22	.
O=C(NCc1cn2ccsc2n1)c1cccs1	-0.72	2.2
CCCCCOc1ccc(C2C(C(=O)OC)=C(C)N=C3SCCC(=O)N32)cc1OC (stereo not drawn)	-1.5	-1.3
O=C(CN(C1=NC2CS(=O)(=O)CC2S1)c1ccccc1)Nc1ccc(F)c(Cl)c1 (stereo not drawn)	-1.6	0.65
CCc1nc(SCC(=O)c2ccc(F)cc2)n[nH]1	-0.85	-0.72
CCCN1CCN(c2nnc(-n3cccc3CN3CCN(c4ccc(OC)cc4)CC3)s2)CC1	.	2.1
CCS(=O)(=O)c1ncc(Cl)c(C(=O)Oc2ccc(OC)cc2)n1	-0.32	-0.6
CC1(C(=O)NC2CCCC2)CCC(=O)N1c1ccc(F)cc1 (stereo not drawn)	-1	0.07
CCOC(=O)N1CCC(NS(=O)(=O)c2ccc3c(c2)CC(C)N3C(=O)C2CC2)CC1 (stereo not drawn)	.	1
CCC(=O)N1CCn2c1nc1ccccc12	-0.67	0.78
COc1ccc2cc(CCNS(C)(=O)=O)c(=O)[nH]c2c1	-0.25	.
Cc1cc(NC(=O)Nc2c[nH]c(=O)[nH]c2=O)ccc1Br	.	0.74
CCOc1cc(C2C(C(=O)OCCSCC)=C(C)NC3=C2C(=O)CC(C)(C)C3)cc(Cl)c1O (stereo not drawn)	-2.2	3.6
CCOc1c(Cl)cc(CNCCCSc2nnnn2C)cc1OC	-0.32	1.8
COc1ccc(CCN[C@H]2CS(=O)(=O)C[C@@H]2S(=O)(=O)c2cccs2)cc1	-1.7	-1.7
NC(=O)c1nc(-c2ccccc2)nc2c1[nH]c(=O)n2C1CCCCC1	.	1.4
CCN(Cc1ccccc1)S(=O)(=O)c1cc(-c2ccc(=O)n(-c3c(C)noc3C)n2)ccc1C	.	1.4
CC(C)CCNc1nc(NCc2ccc(Cl)cc2)c2cnn(C)c2n1	.	0.6
Cn1c(NC(=O)c2cccc3ccccc23)cc(=O)n(C)c1=O	.	1.8
O=c1c(O)c(-c2ccccc2O)oc2cc(O)cc(O)c12	.	2.5
Cc1nnc2n1NC(c1ccc(F)cc1)C(C(=O)NCc1ccco1)S2 (stereo not drawn)	-0.85	-1.1
O=C(Cn1nc(Cc2ccncc2)c2ccccc2c1=O)N1CCN(c2ccccn2)CC1	-0.69	1.3
O=C(CN1C(=O)N(c2ccccc2)S(=O)(=O)c2ccccc21)c1ccc(Cl)cc1	.	0.62

Following part
SMILES	CDC25B CDK2 inh	HIV TAR-Tat
COc1cc(S(=O)(=O)N2CCN(c3ccc(F)cc3)CC2)ccc1Cl	-1.4	.
CN1CCN(Cc2cc(Br)c3cccnc3c2O)CC1	-3	.
Cc1cc(=O)n(CC(=O)N2CCc3ccccc32)c2c1c(C)nn2C	.	-0.77
O=C(Nc1nccs1)Oc1ccccc1	-1.9	0.27
COc1ccc(/C(O)=C2\C(=O)C(=O)N(CCCn3ccnc3)C2c2ccc(OC)cc2)cc1 (stereo not drawn)	-0.24	1
CCCN1CCN(C(=O)CCCn2nc(C)n3c(cc4occc43)c2=O)CC1	-3.8	3
CC1CN(C(=O)CCC(=O)N2CCOCC2)c2ccccc2S1 (stereo not drawn)	.	0.75
O=C(NC1CCCCC1)SCc1ccccc1	-0.38	.
Cc1cc(-c2nc(-c3ccnn3S(=O)(=O)c3ccccc3)cs2)no1	-1	.
O=C(CSc1ncccn1)N1c2ccccc2Sc2ccc(Cl)cc21	0.26	.
O=C(NC1CC1)c1ccc2c(=O)nc3c(-c4ccc(F)cc4)n[nH]n3c2c1	.	0.74
Cc1nc(N2CCCCC2)cc(N2CCN(C(=O)c3cccs3)CC2)n1	-2.2	-0.24
O=c1c(NCc2ccc(F)cc2)c(-c2ccccc2)c1=O	.	1.1
Cc1nc(CNC(=O)[C@H]2CSCN2C(=O)Nc2ccc(F)c(Cl)c2)cs1	.	2.2
N#CSCC(=O)n1c2ccccc2c2ccccc21	-4.2	0.51
O=C1COc2ccc(S(=O)(=O)N3CCOCC3)cc2N1	.	1.3
CCS(=O)(=O)NCCc1cc2ccc(C)cc2[nH]c1=O	-1.3	.
Cn1cc(-c2cc3n(n2)CCCN3C(=O)CCC(=O)NCCCN2CCCCC2)c2ccccc21	.	-1.8
CSc1cccc(NC(=O)CSc2nnc(C)n3c2cc2occc23)c1	.	1.7
CC(=O)c1ccc(N2CCN(C(=O)CN(C)S(=O)(=O)c3ccc4c(c3)CCC(=O)N4)CC2)cc1	0.39	.
O=c1[nH]c(SCc2ccc(F)cc2)nc2nc[nH]c12	-1.6	0.03
CCOC(=O)C1=C(C)N(C)C(C)=C(C(=O)OCC)C1c1ccncc1	-2.3	.
COc1ccc(NC(=O)c2cnn3c(C)cc(C)nc23)cc1	-0.43	.
CCS(=O)(=O)c1nc(S(=O)(=O)c2ccc(C)cc2)c(N2CCCC(C)C2)s1 (stereo not drawn)	-0.39	0.5
O=[N+]([O-])c1ccc(CSc2cc(-c3ccccc3)nc3ncnn23)cc1	-1.9	.

Look-ups from above.
HIV TAR-Tat, O=C(Nc1nccs1)Oc1ccccc1 → 0.27
HIV TAR-Tat, CCS(=O)(=O)c1nc(S(=O)(=O)c2ccc(C)cc2)c(N2CCCC(C)C2)s1 (stereo not drawn) → 0.5
CDC25B CDK2 inh, CN1CCN(Cc2cc(Br)c3cccnc3c2O)CC1 → -3
HIV TAR-Tat, O=C1COc2ccc(S(=O)(=O)N3CCOCC3)cc2N1 → 1.3
CDC25B CDK2 inh, COc1ccc(/C(O)=C2\C(=O)C(=O)N(CCCn3ccnc3)C2c2ccc(OC)cc2)cc1 (stereo not drawn) → -0.24

More records
SMILES	CDC25B CDK2 inh	HIV TAR-Tat
COc1ccc2c(c1)c1c3n2CCN=C3N(C)CC1	-0.72	1
O=C1CCCc2cc(S(=O)(=O)NCC3CCC(C(=O)NC4CC4)CC3)ccc2N1 (stereo not drawn)	.	0.99
Cn1ccnc1SCC(=O)Nc1ccc2c(c1)OCO2	-1.7	.
Oc1ccccc1C=NCCCN=Cc1ccccc1O	-3.4	.
CN(C(=O)NCc1noc2ccccc12)c1ccccc1Cl	.	-0.71
COc1ccc(C2CC(=O)C3=C(C2)NC(=O)CC3c2ccc(Cl)cc2)cc1OC (stereo not drawn)	1	0.39
C#CCOC(=O)Nc1cnc(Oc2c(Cl)cccc2Cl)c(C(F)(F)F)c1	3.9	.
Cc1cc(C)cc(-n2c(CN3CCNCC3)nc3cccnc32)c1	.	-0.59
COc1ccc(S(=O)(=O)NCCn2c(C(F)(F)F)nc3ccccc32)cc1OC	.	1.5
Cc1nnc2sc(SCc3ccccc3Br)nn2c1=O	-1.8	0.96
COc1ccc(OCCCn2c(C)nc3cc(C)c(C)cc32)cc1	-0.46	1.7
Cc1ccc(Cl)cc1N1CCN(S(=O)(=O)c2ccc3c(c2)C(C)(C)C(=O)N3)CC1	.	-1.1
Cc1cc(N2CCCCC2)n2ncc(-c3ccc(F)cc3)c2n1	0.06	-0.81
O=C(Nc1nc(-c2ccncc2)cs1)c1ccc(S(=O)(=O)N2CCCCC2)cc1	0.66	.
O=C(c1ccco1)N1CCN(C(=O)c2ccco2)CC1	-1.2	.
CCc1ccccc1NC1=NS(=O)(=O)C(c2cccc(Br)c2)=C1C	-3.3	0.07
S=C(NCCc1ccccc1)Nc1cccnc1	-0.98	.
COCCOC(=O)C1=C(C)NC2=C(C(=O)CCC2)C1c1cc(Br)c(O)c(OC)c1 (stereo not drawn)	-0.74	0.52
Cc1ccc(OC(C)c2nc(-c3ccccc3)no2)cc1 (stereo not drawn)	-0.81	0.66
O=C(c1cccs1)c1cn(CC(=O)N2CCOCC2)c2ccccc12	0.01	1
CN(C)S(=O)(=O)n1nc(/C=C/c2ccccc2Cl)nc1-c1ccccc1O	-2.5	1.3
CC(=O)c1c(C)n(CCO)c2ccc(O)cc12	-2.3	.
Cc1cc(-c2ccc(S(=O)(=O)N3CCN(C4CCCCC4)CC3)s2)on1	.	-0.37
CC1CCCCN1C(=O)c1cc2n(n1)C(C(F)(F)F)CC(c1ccco1)N2 (stereo not drawn)	-0.68	-0.63
CCSc1nnc2c(n1)OC(c1ccc(C(=O)O)cc1)N(C(C)=O)c1ccccc1-2 (stereo not drawn)	-0.88	0.05
c1coc(CNc2nc3ccccc3n2CCN2CCOCC2)c1	0.16	-0.28
CCS(=O)(=O)N1CCCc2ccc(NS(=O)(=O)c3ccc(OC)cc3)cc21	.	0.01
CCOC(=O)c1cn[nH]c1S(=O)(=O)Nc1ccc(F)cc1	.	-0.39
O=C(NCC1CCN(C(=O)c2c(F)c(F)c(F)c(F)c2F)CC1)c1c(F)c(F)c(F)c(F)c1F	-3.6	.
Cc1ccc(-c2nc3cc(Cl)ccc3o2)cc1NC(=O)c1ccc([N+](=O)[O-])o1	-0.94	1.3
Cc1nn(-c2ccccc2)c(C)c1C(=O)Oc1ccccc1	-0.57	.
CCn1c(C2CC(=O)N(c3cccc(Cl)c3)C2)nc2ccccc21 (stereo not drawn)	-0.66	1.6
CCOC(=O)c1noc2nc(C)nc(NCc3cccnc3)c12	.	-0.53
Cc1ccc(S(=O)(=O)Nc2cc3[nH]c(=O)[nH]c3cc2C)cc1C	.	0.99
Cc1ccc(Cn2nc3n(c2=O)-c2ccccc2OC3)cc1	-0.93	0.39
Cn1c(NC(=O)CCC2CCCCC2)cc(=O)n(C)c1=O	.	2.6
Fc1ccc(Nc2nc3ccccc3n3cnnc23)cc1	0.48	-0.61
CCC1CCCCN1S(=O)(=O)c1ccc(NC2=NS(=O)(=O)c3ccccc32)cc1 (stereo not drawn)	-0.67	-1.5
Cc1ccccc1-c1noc(-c2nnn(-c3cc(F)ccc3F)c2C)n1	.	0.3
CCOc1ccc(-n2ccc(=O)c(C(=O)Nc3nc4ccc(F)cc4s3)n2)cc1	0.4	0.26
O=C(CSc1nnc(-c2ccncc2)o1)N1CCCc2ccccc21	-2	0.38
COC(=O)c1cc(NC(=O)c2nc3ncccn3n2)cc(C(=O)OC)c1	-2.1	-1.3

Four records drawn at random from those above:
SMILES	CDC25B CDK2 inh	HIV TAR-Tat
COc1ccc(OCCCn2c(C)nc3cc(C)c(C)cc32)cc1	-0.46	1.7
Cc1cccc(CSC2=NS(=O)(=O)c3ccc(C)cc3N2)c1	.	2
CCOC(=O)c1cn[nH]c1S(=O)(=O)Nc1ccc(F)cc1	.	-0.39
COCCN[C@H]1CS(=O)(=O)C[C@@H]1S(=O)(=O)c1ccc(C)cc1	-1.5	-0.47

Screening data deposited in PubChem by Center for Chemical Genomics, University of Michigan.
